Compound activity (PubChem BioAssay)
NPYLR7 ag – agonists of mosquito NPYLR7 receptor, primary screen, cell-based, Aedes aegypti, calcium fluorescence, mosquito biting behavior; HEK293T NPYLR7/Galpha15, GCaMP6s calcium fluorescence; activation, % at 10 µM; 0.15% of 270,000 active; AID 1259423, 2018; in the data active means activation above about 40%;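 further: 0% = vehicle and 100% = reference agonist at the receptor; some compounds past the cut are filed as inactive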
NPYLR7 ag max-min – further read-out of NPYLR7 ag, marked with its call; activation, %; measured here: Max-Min RFU normalised activation; some inactives read as strong as hits;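 span of the calcium signal over five minutes; 0% = vehicle and 100% = native peptide agonist; compound fluorescence can raise it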
* = called active by the depositor; & = joins results of further samples.

SMILES	NPYLR7 ag	NPYLR7 ag max-min
COc1cc(=O)n(-c2ccc(F)cc2)nc1C(=O)Nc1cc(Cl)ccc1O	5	-1
CC(C)(C)c1ccc(C(=O)NNC(=O)C2CCCCN2S(C)(=O)=O)cc1 (stereo not drawn)	3	2
CCCCC(=O)N1CCN(S(=O)(=O)c2ccc3ccccc3c2)CC1	13	5
CC1=NOC(C)(CNC(=O)c2cc(C)nc3ccc(C)cc23)C1 (stereo not drawn)	21	10
CCCCCCc1ccc(C(=O)Nc2ccc(-n3nc(OCCOC)nc3-c3cccc(C(F)(F)F)c3)cc2)cc1	-14	-8
CN(C)CCCNC(=O)c1ccc(-c2cc(-c3cccc4ccccc34)[nH]n2)cc1	2	1
O=C(NCc1ccccc1)NNC(=O)c1cccn(Cc2cccc(F)c2)c1=O	4	-2
CCCCOc1ccc(C(=O)NC(C)C2COc3ccccc3O2)cc1OC (stereo not drawn)	1	1
COc1ccccc1NC(=O)NC(C)c1ccc(C#N)cc1 (stereo not drawn)	17	15
CC(=O)Nc1ccc(N=Nc2c(C)[nH]n(-c3nc(-c4ccc(Br)cc4)cs3)c2=O)cc1	8	11
CCn1c(C)cc(C(=O)CSc2nnc(C)n2C2CCCCC2)c1C	2	17
Cc1ccc(CN2CC(C(=O)Nc3nc(C)cs3)CC2=O)cc1 (stereo not drawn)	7	3
CC(C)(CNC(=O)c1ccc(Cl)s1)N1CCS(=O)CC1	5	4
Nc1cc(-c2ccc(Cl)cc2)nn1-c1ccc(C(=O)N[C@H](CO)Cc2ccccc2)cc1	3	5
CCCC(=O)Nc1cc2c(cc1OC)NC(=O)CC2c1cncn1CC (stereo not drawn)	17	10
COCC1(C(=O)NC2CC(=O)N(CCc3ccc(F)cc3)C2)CCC1 (stereo not drawn)	7	0
CCn1c(CNC2C3CCCC2CN(C2CC2)C3)nc2ccccc21 (stereo not drawn)	6	6
O=C(NC1(C(F)(F)F)N=C2SCCN2C1=O)c1ccccc1 (stereo not drawn)	18	11
OCc1cc(-c2ccc(N3CCCC3)nn2)ccc1F	5	2
CCOC(=O)c1ccc2c(c1)NC(=O)C(C)N2 (stereo not drawn)	2	0
COCCSc1nc2c(cnn2CCO)c(=O)[nH]1	5	2
CCc1ccc(NC(=O)CSc2nc(=O)n(CCCN(C)C)c3c2CCC3)cc1	-5	-9
O=C(Cc1csc(Cc2ccc(F)cc2)n1)Nc1ncccc1O	-1	-8
CN(Cc1ccc(-n2cccn2)cc1)Cc1cn[nH]c1-c1ccc(F)cc1F	13	7
Cc1cc(N2CCN(c3cccc(C(F)(F)F)c3)CC2)nc(SCc2cccc(C(=O)NC3CC3)c2)n1	14	15
CCNC(=O)OC1CCN(C(=O)c2ccc(NC(C)=O)cc2)CC(=O)N(C)c2ccccc21 (stereo not drawn)	6	17
O=C(NC1CCOCC1)c1ccc(NCc2ccccc2Cl)cc1	2	17
CCc1c(CN2CCN(C3CCCCC3)CC2)csc1C	3	1
CCCN(C(=O)Nc1ccccc1N1CCN(CC)CC1)C1CC(OCC)C1(C)C (stereo not drawn)	-7	-8
CCOc1cc2nccc(N3CCc4cncnc4C3)c2cc1OCC	-6	-5

Full records as entered above. Order of values: NPYLR7 ag	NPYLR7 ag max-min
Profile of `CCc1ccc(NC(=O)CSc2nc(=O)n(CCCN(C)C)c3c2CCC3)cc1` → -5	-9
Profile of `CCNC(=O)OC1CCN(C(=O)c2ccc(NC(C)=O)cc2)CC(=O)N(C)c2ccccc21` (stereo not drawn) → 6	17

(continued)
SMILES	NPYLR7 ag	NPYLR7 ag max-min
COc1cccc(-c2cc(C(=O)N3CCN(C(=O)CCl)CC3)c(C)n2-c2ccccc2)c1	-9	-14
Cc1cccc(C)c1OCC(O)Cn1cnc2cc(Cl)ccc2c1=O (stereo not drawn)	17	9
Cc1oc(-c2ccoc2)nc1CN1CCC(Oc2ccccc2F)CC1	22	16
O=C1O[C@@H]2CN(Cc3cscn3)C[C@@H]2N1CCCN1CCOCC1	3	1
Cc1onc(-c2c(Cl)cccc2Cl)c1C(=O)NCc1ccc(F)cc1	-5	-6
O=Cc1cccc(-c2nccnc2NCc2cccnc2)c1	-1	-6
Cc1cc(OC(=O)c2cc3ccccc3oc2=O)c([N+](=O)[O-])c(=O)[nH]1	0	-1
O=C(NCC(O)c1ccccc1C(F)(F)F)c1ccc2c(c1)OCO2 (stereo not drawn)	8	5
Cc1nn(Cc2ccccc2Cl)c(C)c1C=CC(=O)N(C)CC(=O)NC(C)(C)C	2	14
Cc1noc(C)c1CSc1n[nH]c(CCC2CCCC2)n1	3	-1
COc1ccccc1C(=O)NCCNc1cc(-n2cccn2)ncn1	-9	-10
CCCCOCCOCC(=O)N1CCN(Cc2ccc(-c3noc(-c4cccnc4)n3)cc2)CC1	6	3
O=C(Cc1ccc2c(c1)CCCC2)NCC1CCCO1 (stereo not drawn)	-1	-4
CCCc1nc2ccccc2n2c(-c3ccc(OC)cc3)c3c(=O)n(C)c(=O)n(C)c3c12	-12	-17
CC1CCCN(C(=O)c2ccc(C=O)[nH]2)C1 (stereo not drawn)	-1	95
c1cncc(NCCNc2nccc(C3CCCC3)n2)c1	19	10
CCOC(=O)c1c(NC(=O)c2ccc([N+](=O)[O-])cc2)sc(C(=O)N2CCOCC2)c1C	-10	-13
CC(=N)Cc1oc2ccc(O)cc2c1[N+](=O)[O-]	-7	-9
O=C(c1cn(CC2CCCO2)cc2c(=O)n(-c3ccccc3)nc1-2)N1CCCCC1 (stereo not drawn)	5	3
CC(C)CC1(CO)CCCN(C(=O)c2cccc3cnccc23)C1 (stereo not drawn)	1	-19
COc1cc(C[C@H]2C(=O)OC[C@@H]2Cc2ccc(OC)c(OC)c2)ccc1O	1	-8
COc1cc(OC)cc(C(=O)Oc2coc(CSc3nccn3C)cc2=O)c1	27	12
CN1CCCC2(CC1)CCN(C(=O)c1ccc(S(N)(=O)=O)cc1)CC2	6	5
COc1cc(CC(=O)N2CCC3(CC2)OCc2cc(-c4cccc(CO)c4)ccc2O3)cc(OC)c1OC	-28	-30
Cc1c(C(=O)NC2CCCC2)c(C(F)(F)F)nn1C1CCCN(C)C1 (stereo not drawn)	15	7
COC(=O)CN(C)C(=O)c1ccc2nc(Cc3cccc(Cl)c3)oc2c1	8	7
COc1ccc(S(=O)(=O)Nc2cccnc2Nc2ccc(O)cc2)cc1	-8	-9
COc1ccc2cc(C3CN(C(=O)c4cccc(C)c4O)CCO3)ccc2c1 (stereo not drawn)	3	-3
CCCC(CCC)C(=O)N1CCN(c2ncnc3c2nnn3Cc2ccccc2)CC1	-3	-13
CC(O)(C(=O)Nc1ccc(S(=O)(=O)c2ccccc2)cc1)C(F)(F)F (stereo not drawn)	-4	-5
O=C(CC1C(=O)NCCN1CC1CCCCC1)NC1CCC1 (stereo not drawn)	1	-2
COC(=O)c1ccccc1NC(=O)N1CCCC(C(=O)c2sccc2C)C1 (stereo not drawn)	12	-1
O=C1OC(=NCc2ccccn2)NC1Cc1ccccc1 (stereo not drawn)	6	0
CCc1nnc(N=Cc2nc(-c3ccc(Br)cc3)oc2O)s1	-6	-8
O=C1NC(=O)C2(COC(c3ccncc3)OC2)S1 (stereo not drawn)	-1	-4
Cc1ccc(C(=O)N2CCCC(CO)(Cc3ccccc3)C2)c(C)c1 (stereo not drawn)	-5	-5
CC(=O)N1N=C2C3CCN(CC3)C2C1c1cccs1 (stereo not drawn)	7	3
O=C(NC1CC1)c1cc(N2CCN(C/C=C/c3ccccc3)CC2)ccn1	-2	-3
COCCN1CCCC(O)(CN2CCN(C(=O)c3ccc[nH]3)CC2)C1=O (stereo not drawn)	11	-6
O=C(NCC(=O)N1CCC(C(=O)c2ccccc2)CC1)c1ccc(Cl)cc1Cl	2	6
CC1CCc2sc(C(=O)NNC(=O)CC34CC5CC(CC(C5)C3)C4)cc2C1 (stereo not drawn)	-2	-3
CSc1ccccc1OCc1cc(C(=O)N2CCC[C@H]2C(N)=O)no1	-1	-3
O=C(NC(c1ccccc1)c1cnccn1)C1CCN(Cc2ccccc2)CC1 (stereo not drawn)	3	1
CCOCCCn1c(SC(C)C#N)nc2cc(S(=O)(=O)N3CCCC(C)C3)ccc21 (stereo not drawn)	3	0
CC(C)CNC(=O)c1cc(-c2cccc(Br)c2)nc2ccccc12	3	8
COCC(=O)N(Cc1nccn1Cc1ccccc1)CC1CCCO1 (stereo not drawn)	8	13
CCCNC(=O)c1nnc2n1CCN(C(=O)c1ccccc1)C2	3	1
O=C(CSc1nc(=O)n(Cc2ccco2)c2c1CCC2)NC1CCCCC1	-12	-13
CCOC(=O)N1CCN(C2CCCN(C(=O)c3ccc(CSC)o3)C2)CC1 (stereo not drawn)	7	0
Cc1c(C)n2c3c(=O)n(CCN4CCOCC4)c(=O)n(C)c3nc2n1Cc1ccccc1	18	6

(cont.)
SMILES	NPYLR7 ag	NPYLR7 ag max-min
CN1OC(C)(CC(=O)Nc2ccc(C(C)(C)C)cc2)N=C1c1cccnc1 (stereo not drawn)	8	2
CSC1CCCC1N(C)C(=O)Cc1cccc(O)c1 (stereo not drawn)	1	1
O=C(c1coc(COc2ccc3c(c2)OCO3)n1)N1CCCN2CCC[C@H]2C1	25	17
CCCCCCc1ccc(C(=O)N2CCC3(CC2)C(=O)N(CC(=O)NCCCOC)CN3c2ccccc2)cc1	6	10
Cc1cccc2c1N(CC(=O)Nc1ccccc1S(C)(=O)=O)CCC2	4	2
CCOc1ccccc1N1CCN(C(=O)c2ccc(Cl)c(Cl)c2)C(C)C1=O (stereo not drawn)	14	16
O=C(CSc1nc2ccccc2s1)N/N=C\c1ccccc1[N+](=O)[O-]	-4	-9
O=C(Cc1ccccc1F)NCc1ccccc1Cn1cccn1	-5	-10
C#CCn1c(O)c(N=NC(=O)CNC(=O)c2cccc(F)c2)c2ccccc21	-6	-12
COc1ccc2c(c1)C=C(C(=O)Nc1n[nH]c(C3CC3)c1C)CO2	4&8	6&5

Looked up above:
Under NPYLR7 ag, C#CCn1c(O)c(N=NC(=O)CNC(=O)c2cccc(F)c2)c2ccccc21 reads -6
Under NPYLR7 ag max-min, COc1ccc2c(c1)C=C(C(=O)Nc1n[nH]c(C3CC3)c1C)CO2 reads 6&5
Under NPYLR7 ag max-min, O=C(CSc1nc2ccccc2s1)N/N=C\c1ccccc1[N+](=O)[O-] reads -9
Under NPYLR7 ag, CN1OC(C)(CC(=O)Nc2ccc(C(C)(C)C)cc2)N=C1c1cccnc1 (stereo not drawn) reads 8
Under NPYLR7 ag max-min, O=C(c1coc(COc2ccc3c(c2)OCO3)n1)N1CCCN2CCC[C@H]2C1 reads 17

Next compounds follow:
SMILES	NPYLR7 ag	NPYLR7 ag max-min
Cc1cc(OC(=O)c2ccccc2)n(CCC#N)n1	4	3
O=C(NCCc1ccc(F)cc1)c1ccc(-c2cccc(Cl)c2)s1	2	17
CCCc1nc2cc(C)ccn2c1NC1CCCCC1	35	30
CCOc1ccc(N2CC(C(=O)OC(C(N)=O)c3ccccc3)CC2=O)cc1 (stereo not drawn)	2	2
CN(Cc1cccc(Cl)c1)C(=O)CSc1nnc(N2CCOCC2)n1C1CC1	0	25
Cc1ccccc1-n1c(-c2ccc(F)cc2)n[nH]c1=S	-2	8
COCCCn1c(C(=O)Nc2cc(Cl)ccc2OC)cc2c(=O)n(C)c(=O)n(C)c21	0	-3
COCC(=O)N1CCCN(Cc2c(F)ccc(OC)c2Cl)CC1	6	2
C=CCOC(=O)C1=C(C)N(C)C(=O)NC1c1ccc(Cl)c(Cl)c1 (stereo not drawn)	0	-7
COc1ccccc1CCNC(=O)c1ccccc1N1CCC(NC(=O)c2cccc(Cl)c2)CC1	0	8
Cc1cccc(N2CCn3c2nc2c3c(=O)n(C)c(=O)n2C)c1C	-8	-11
CC(C)c1n[nH]c2c1CN(C(=O)Cc1cn3ccsc3n1)CC2	15	2
NC(=O)c1ccc(Cn2cnc3c(Cl)cc(Cl)cc3c2=O)cc1	-1	-2
Cn1c(=O)n(C)c2cc(CNc3nn[nH]n3)ccc21	0	-1
CCN1CCN(C(=O)Cn2c(=O)n(-c3ccccc3F)c(=O)c3ccc(Cl)cc32)CC1	4	7
Cc1cccc(C(=O)Nc2ncn(CC(=O)NCc3ccccc3)n2)c1	7	5
N#Cc1c(-c2cccc(F)c2)cc(-c2ccccc2)nc1SCC(=O)Nc1ccc(Br)cc1	-2	-8
CCc1ccc(CNS(=O)(=O)c2cc(NC(C)=O)ccc2OC)s1	1	-2
O=C(O)c1cnc(/C=C/c2cccc(C(F)(F)F)c2)s1	2	0
O=C(Nc1cccc(CN2CCCC2)c1)c1cc(Cl)ccc1F	10	11

3 compounds drawn at random from those above, as already listed:
SMILES	NPYLR7 ag	NPYLR7 ag max-min
O=C(NCCc1ccc(F)cc1)c1ccc(-c2cccc(Cl)c2)s1	2	17
CSc1ccccc1OCc1cc(C(=O)N2CCC[C@H]2C(N)=O)no1	-1	-3
CCCCC(=O)N1CCN(S(=O)(=O)c2ccc3ccccc3c2)CC1	13	5

More records:
SMILES	NPYLR7 ag	NPYLR7 ag max-min
O=C(c1ccno1)N1CCC(Cc2ccc(-c3ccccc3)cc2)CC1	2	5
O=C1NC2(CCN(C(=O)c3cc(Cl)cc(Cl)c3)CC2)Nc2ccccc21	6	20
CSc1ncccc1C(=O)N1CCCC(N2CCN(c3ccccc3C)CC2)C1 (stereo not drawn)	1	-2
Cc1ccc(C2(O)CCN(C(=O)c3ccc(C(F)(F)F)[nH]c3=O)CC2)nc1	1	-6
Cn1c(-c2cccc(F)c2)cc2cnc(Nc3cccc(NS(C)(=O)=O)c3)cc21	7	12
O=C(CSc1nnc(-c2ccco2)o1)NCc1ccco1	1	-1

Some of these compounds in order of molar mass, high to low.
SMILES	NPYLR7 ag	NPYLR7 ag max-min
Cn1c(-c2cccc(F)c2)cc2cnc(Nc3cccc(NS(C)(=O)=O)c3)cc21	7	12
Cc1ccc(C2(O)CCN(C(=O)c3ccc(C(F)(F)F)[nH]c3=O)CC2)nc1	1	-6
O=C(c1ccno1)N1CCC(Cc2ccc(-c3ccccc3)cc2)CC1	2	5
O=C(Nc1cccc(CN2CCCC2)c1)c1cc(Cl)ccc1F	10	11
O=C(CSc1nnc(-c2ccco2)o1)NCc1ccco1	1	-1

A portion of the library. The share of hits here may be higher or lower than overall.
